From PubChem
CSC inhib: blocks cancer stem cells | cancer stem cell-like cells viability, luminescence | inhibition, % at 7.5 µM | actives 1.1% (n = 300,000) | AID 2717;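 active means mean at 75% or more and at least half the replicates too; inconclusive means mean and replicates disagree; tested in HMLE shEcad cells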;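 further: 0% = median of negative and 100% = median of positive control wells; the first replicate is given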
PABP polyA inh: PABP-poly(A) binding inhibition | P11940 | PABP-poly(A) RNA binding, fluorescence polarization | inhibition, % at 35 µM | actives 1% (n = 290,000) | AID 2014;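 active means 50% or more with normal probe brightness, or confirmed in later tests; inconclusive means above 50% with abnormal brightness, or retests that disagree; inactive means below 50% or failed in later tests; about a fifth of its hits are not listed in these tables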;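 further: calls also rest on retests at 20 µM and on dose response follow-up; controls were probe without protein and protein plus probe with vehicle; some compounds called inactive have numbers as strong as hits; many hits fall short of the cut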
Target sequence (P11940 whole entry, looked up): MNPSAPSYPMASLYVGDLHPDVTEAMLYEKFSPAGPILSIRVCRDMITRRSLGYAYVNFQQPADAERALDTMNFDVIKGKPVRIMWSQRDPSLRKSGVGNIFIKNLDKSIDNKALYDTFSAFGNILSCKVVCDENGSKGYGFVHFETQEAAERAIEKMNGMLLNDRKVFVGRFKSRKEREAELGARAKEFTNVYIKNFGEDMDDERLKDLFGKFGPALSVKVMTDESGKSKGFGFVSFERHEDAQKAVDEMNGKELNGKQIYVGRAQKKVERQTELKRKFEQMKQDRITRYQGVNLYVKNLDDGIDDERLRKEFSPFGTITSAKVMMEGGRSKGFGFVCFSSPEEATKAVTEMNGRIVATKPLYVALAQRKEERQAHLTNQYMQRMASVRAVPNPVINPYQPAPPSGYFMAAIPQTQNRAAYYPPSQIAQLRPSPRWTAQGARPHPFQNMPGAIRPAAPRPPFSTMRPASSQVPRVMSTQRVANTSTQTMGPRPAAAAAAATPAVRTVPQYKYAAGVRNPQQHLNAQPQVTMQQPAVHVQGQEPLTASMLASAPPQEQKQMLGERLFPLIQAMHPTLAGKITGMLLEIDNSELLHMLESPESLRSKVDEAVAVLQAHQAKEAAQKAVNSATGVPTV
MT1-MMP act inh: blocks activation of human MT1-MMP; P50281; HT1080 RFP-PRO-GFP cells, GFP/RFP ratio fluorescence, overnight; percent of plate control window, DMSO zero; GFP/RFP ratio change, % at 20 µM; actives 0.061% (n = 360,000); AID 651647;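 active means GFP/RFP ratio change of at least 30% with cell ATP level not reduced by more than half and red fluorescence within 50% of control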; further: strong numbers were not always called active
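Test system: HT1080 cells expressing an RFP-PRO-GFP fluorescent reporter construct / Compound dosing: single-point 20 µM compound, 1% DMSO / Schedule: cells overnight before dosing, compound overnight, 37 °C, 5% CO2 / Evaluation: GFP/RFP fluorescence ratio / Control set: DMSO and RFP-L50D-GFP cell wells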
eIF4H FP inh: inhibitors of RNA binding by human eIF4H; Q15056; eIF4H fluorescence polarization binding assay; inhibition, % at 35 µM; actives 0.94% (n = 290,000);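 active means 50% or more with normal probe brightness, or confirmed in later tests; inconclusive means above 50% with abnormal brightness, or retests that disagree; inactive means below 50% or failed in later tests; about a fifth of its hits are not listed in these tables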;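 further: calls also rest on retests at 20 µM and on dose response follow-up; 0% = protein and probe with vehicle and 100% = probe without protein; strong numbers were not always called active; many hits fall short of the cut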
UUG fidelity: alters start codon recognition fidelity in yeast; activity score, % at 18.7 µM; S. cerevisiae UUG-firefly luciferase reporter, luminescence/redox ratio; AID 602363; actives 0.13% (n = 350,000);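 active means replicate mean at a twofold rise or more, about +100% in these data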;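 further: firefly luciferase made from a UUG start codon reports start codon fidelity; reporter light over untreated wells divided by growth signal over untreated wells; some hits fall short of that in this replicate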
Rce1 inhib: blocks yeast Ras-converting enzyme | actives 0.27% (n = 290,000) | calls only | yeast membranes, quenched prenylated peptide cleavage fluorescence;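 active means fall in fluorescence gain of 50% or more versus controls, with final raw signal at or below 3038400; inconclusive means same 50% fall but final raw signal above 3038400; inactive means fall in fluorescence gain under 50%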;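 further: plate controls were neutral control wells for no effect and wells lacking membranes for full effect; tested at 10 µM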
Env fusion inh: HIV envelope-mediated fusion inhibition; HeLa-JRFL Env/CEM21 cell fusion, luciferase; inhibition, % at 12.3 µM; actives 1.1% (n = 360,000); AID 651610;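 active means mean replicate inhibition score of at least 50 and every replicate individually at or above 50; inconclusive means only one of the two criteria met; inactive means mean below 50 and not all replicates reaching 50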;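 further: 0% = plate neutral controls and 100% = maraviroc near 300 nM; one replicate is shown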
eIF4H FP inh retest: second read-out of eIF4H FP inh, no call of its own (marks repeat the call); inhibition, %; compound at 20 µM; confirmation average;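 mean of two retest wells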
PABP polyA inh retest: also measured in PABP polyA inh; calls as there; inhibition, %; compound at 20 µM; confirmation repeats;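 mean of two retest wells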
MT1-MMP act inh RFP: further read-out of MT1-MMP act inh, marked with its call; RFP signal change, %; measured here: RFP expression control read;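 0 = vehicle wells; hits needed this value within 50% of zero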
Active calls of the source: *; i = inactive; ? = inconclusive; nt = not tested or not shown.

SMILES	CSC inhib	PABP polyA inh	MT1-MMP act inh	MT1-MMP act inh RFP	eIF4H FP inh	UUG fidelity	Rce1 inhib	Env fusion inh	others
COCCCNC(=O)CN(c1cc([N+](=O)[O-])ccc1OC)S(C)(=O)=O	-11.6	-2.8	0.1	1.6	-0.5	9.3	i	-4.2
CC(=O)Nc1ccc(NCc2ccc(C)s2)cc1	-15.0	1.2	1.7	1.0	-9.4	-3.3	i	-13.8
Cc1cccc(NC(=O)c2cc3c(=O)n4ccccc4nc3n(CC(C)C)c2=N)c1	3.9	9.7	1.2	2.9	-2.2	-18.6	i	-16.2
C=CCn1c(C)cc(-c2csc(NC(=O)C3CCN(c4ncnc5sc(C)c(C)c45)CC3)n2)c1C	nt	nt	2.3	-3.7	nt	-11.9	nt	6.1
CC1(C)N([O-])C2=C(CCCC2)[N+]1=O	nt	16.8	1.5	5.0	76.3	nt	i	4.2	eIF4H FP inh retest=-9.7;PABP polyA inh retest=-3.9
CCC1NC(=O)c2ccccc2N1c1cccc(Cl)c1 (centres undefined)	-3.0	nt	8.0	-3.9	nt	-9.1	i	18.3
CCCCCn1c(C(Cc2ccccc2)NC(C)=O)nc2ccccc21 (centres undefined)	-1.1	13.0	-4.4	-4.9	-1.8	-16.7	i	4.5
CC1(C)Cc2c(c(-c3ccccc3)nc3sc4c(=O)[nH]c(=S)[nH]c4c23)CO1	-8.0	6.6	nt	nt	2.8	nt	i	nt
NC(=O)CSc1nnc(COc2ccccc2)n1C1CCCCC1	nt	0.1	-4.9	-0.2	-9.5	-19.6	nt	nt
Cc1ccc(NS(=O)(=O)c2coc(C(N)=O)c2)cc1F	-1.6	-8.1	-3.1	-1.2	-7.7	-12.5	i	10.3
COc1cc(-c2nnc(SCC(=O)O)n2-c2ccccc2)cc(OC)c1OC	-2.5	4.1	-0.7	0.6	1.2	-11.9	i	-2.2
COc1cc(C(CC(=O)N2CCN(c3ccccc3)CC2)c2c(OC)cc(OC)c3ccc(=O)oc23)cc(OC)c1OC (centres undefined)	-2.6	-1.3	0.6	-2.5	-5.6	-19.1	i	15.9

Pulled by compound from above:
SMILES	CSC inhib	PABP polyA inh	MT1-MMP act inh	MT1-MMP act inh RFP	eIF4H FP inh	UUG fidelity	Rce1 inhib	Env fusion inh	others
CCCCCn1c(C(Cc2ccccc2)NC(C)=O)nc2ccccc21 (centres undefined)	-1.1	13.0	-4.4	-4.9	-1.8	-16.7	i	4.5
COCCCNC(=O)CN(c1cc([N+](=O)[O-])ccc1OC)S(C)(=O)=O	-11.6	-2.8	0.1	1.6	-0.5	9.3	i	-4.2
CC1(C)Cc2c(c(-c3ccccc3)nc3sc4c(=O)[nH]c(=S)[nH]c4c23)CO1	-8.0	6.6	nt	nt	2.8	nt	i	nt
Cc1ccc(NS(=O)(=O)c2coc(C(N)=O)c2)cc1F	-1.6	-8.1	-3.1	-1.2	-7.7	-12.5	i	10.3
CCC1NC(=O)c2ccccc2N1c1cccc(Cl)c1 (centres undefined)	-3.0	nt	8.0	-3.9	nt	-9.1	i	18.3

Continued:
SMILES	CSC inhib	PABP polyA inh	MT1-MMP act inh	MT1-MMP act inh RFP	eIF4H FP inh	UUG fidelity	Rce1 inhib	Env fusion inh	others
OCCCNc1cc(-c2ccnc(Nc3cccc(Cl)c3)n2)ccn1	-10.2	2.5	-15.9	-24.9	-2.7	-4.8	i	52.1
O=C(CN(C(=O)Cn1nnc(-c2ccccc2F)n1)c1cccc2c1CCCC2)NCc1ccccc1	19.0	6.0	-2.0	-4.9	-2.9	-10.8	i	-27.3
CC1CC(C)CN(CCCCOc2ccc([N+](=O)[O-])cc2)C1 (centres undefined)	25.2	-2.8	1.6	0.2	8.9	-4.0	i	10.5
CC(C)Oc1ccc(C(=O)O)c(C(=O)O)c1	nt	-0.6	-1.3	-0.1	2.8	-14.5	i	3.4
Cc1cccc(-c2c3c(=O)n(C)c(=O)n(C)c3cn2-c2ccc(O)cc2)c1	-0.9	nt	-8.9	-0.1	nt	-12.3	i	-8.8
COc1ccc(/C=c2\s/c(=C/C(=O)c3ccc(C)cc3)[nH]c2=O)cc1OC	-11.4	-5.4	-93.8	1.3	?	nt	i	8.7
c1ccc(Cn2c(CNc3nc4ccccc4n3CCN3CCCCC3)nc3ccccc32)cc1	16.9	-5.5	-0.6	-17.6	-13.8	-23.1	i	nt
COc1ccc(N2CCN(C(=O)CSc3nc4nc(C)cc(C)n4n3)CC2)cc1	nt	nt	-3.7	0.1	nt	-5.1	nt	2.0
CN(C1CCCCC1)C(CNS(=O)(=O)c1ccc(Cl)cc1)c1ccccc1 (centres undefined)	3.3	24.7	-3.6	-0.1	-9.5	nt	i	28.0
CCOC(=O)C1CCCN(CCC(=O)Nc2ccccc2C)C1 (centres undefined)	4.1	2.3	0.5	2.0	3.4	nt	i	-5.5
CC(NCc1nc2ccccc2n1C)C12CC3CC(CC(C3)C1)C2 (centres undefined)	-1.2	-9.1	4.0	-1.9	-4.4	nt	i	18.2
COC(=O)c1ccc(C[n+]2ccccc2)cc1	-12.8	5.5	6.4	0.4	-0.9	2.2	i	6.3
O=C(OCC(=O)c1c[nH]c2ccccc12)c1ccco1	-8.1	3.1	-0.8	9.6	3.0	-13.0	i	nt
Cc1cccc(Oc2coc3cc(OC(=O)c4cncc(Br)c4)ccc3c2=O)c1	6.9	2.4	-2.5	2.6	-0.4	1.1	i	14.3
CCN(CC)C(=O)CN1C(=O)c2cccc3cccc(c23)C1=O	-13.6	8.0	0.8	1.3	-8.9	nt	i	14.5
CCC(C)NC(=O)Cn1c(-c2ccccc2)cc(C(C)=O)c1C (centres undefined)	-11.7	-5.5	-0.3	0.8	-10.1	nt	i	-4.9
CNC(=O)c1c(C)noc1C	-7.9	1.2	-0.6	4.6	6.7	nt	i	-7.9
C=CCn1c(C(CCC(C)C)CC(C)(C)O)n[nH]c1=S (centres undefined)	-9.8	0.3	-3.8	2.8	-9.6	-22.3	i	1.1
Cc1ccc(NC(=O)C2CCCN(S(=O)(=O)c3cnc[nH]3)C2)c(Br)c1 (centres undefined)	-4.8	-7.0	1.3	3.7	-10.0	5.1	i	3.7
COC(=O)CSc1n[nH]c(=S)s1	-8.0	47.5	1.8	7.6	-4.9	-8.6	i	-0.8
Cc1ccccc1Sc1ncnc2onc(C)c12	3.8	-4.5	-3.4	-5.2	4.6	-22.5	i	nt
CCOC(=O)Nc1ccc2c(COC(=O)CN(C)S(=O)(=O)c3ccc(C)cc3)cc(=O)oc2c1	0.2	nt	0.2	7.5	nt	-16.8	i	-64.5
CCCCN(C(=O)c1ccccc1F)c1c(N)n(CCC)c(=O)[nH]c1=O	-1.2	-7.9	-1.6	-0.4	-8.2	14.0	i	-10.9
CC(=O)NC1C(OCc2ccccc2)OC(COC(C)=O)C(OC(C)=O)C1OC(C)=O (centres undefined)	-19.9	0.7	-0.1	5.0	-4.5	1.2	i	16.1
Cc1ccc(C)c(-n2c(CNC(=O)c3ccco3)nnc2SCC(=O)Nc2nnc(C)s2)c1	0.0	-1.1	2.7	4.0	-6.8	-13.8	i	-19.9
Cc1cc(C)cc(NC(=O)C2CCCN2S(=O)(=O)c2cccc3cccnc23)c1 (centres undefined)	9.2	7.1	-0.4	-2.3	8.0	nt	i	27.1
NC(=S)NNC(=O)c1ccccc1Cl	-12.1	7.1	-0.1	-0.1	-7.4	nt	i	5.4
CCOC(=O)C1(C)CCCN1C(=O)c1ccc(F)c(Cl)c1 (centres undefined)	nt	nt	-0.2	-2.8	nt	-9.4	nt	1.3
Cc1ccc(NC(=O)N2CCC(NC(=O)c3ccco3)CC2)cc1	0.6	8.5	1.3	0.7	-9.6	-14.4	nt	-3.9
CCc1nc2n(n1)C(O)c1cc([N+](=O)[O-])ccc1S2 (centres undefined)	-9.6	0.8	4.8	3.2	-5.2	nt	i	4.7
CCOC(=O)C1(C)CCN1C(=O)c1ccc(Cl)cc1Cl (centres undefined)	nt	nt	1.7	3.7	nt	-20.3	nt	1.6
COc1cccc(N2C(=O)CC(N3CCC(C(N)=O)(N4CCCCC4)CC3)C2=O)c1 (centres undefined)	-3.9	-9.9	6.8	8.0	2.2	-6.6	i	-127.5
Cc1nc2ccc(NC(=O)c3ccc(Br)o3)cc2s1	-8.4	-10.0	-0.9	-3.1	19.4	nt	i	-25.7
c1cn(CCCNC2CCCCCCC2)cn1	0.2	nt	6.2	4.9	nt	-1.2	i	-11.9
Cc1nn(C)c(C)c1/C=N/N=C1\CCC2C3CCc4cc(O)ccc4C3CCC12C (centres undefined)	15.5	-2.6	2.7	-2.4	-3.4	1.2	i	nt
CCN(CC(=O)N1CCN(c2ccccc2)CC1)S(=O)(=O)c1ccc(C)cc1	nt	20.6	4.6	4.0	0.3	nt	i	6.0
CC1(C)Cc2c(C#N)c(SCc3nc4ccccc4[nH]3)nc(N3CCOCC3)c2CO1	nt	4.2	6.2	-9.9	0.3	-17.9	i	0.7
Cc1nnc2n(Cc3ccccc3)c(=O)c3c4c(sc3n12)COC(C(C)C)C4 (centres undefined)	-16.7	-11.3	4.1	2.6	-6.1	nt	i	nt
Clc1ccc(-c2nnc(-c3cccc4ccccc34)o2)cc1	nt	nt	-3.6	2.1	nt	-18.5	nt	-57.1
CC1CCCCC1NCC(=O)Nc1ccccc1-c1ccccc1 (centres undefined)	-6.0	3.9	-2.6	-1.2	-7.7	-0.7	nt	-18.0
NNC(=O)CCc1nc2ccc(O)cc2[nH]1	5.6	-12.5	3.0	3.3	1.6	-7.8	i	-9.3
COc1ccc2oc(=O)c(C(C)=O)cc2c1	-7.7	3.1	-10.8	8.7	-5.4	-19.9	i	-51.2
Cc1cc(S(=O)(=O)N2CCN=C2c2ccccc2)c(C)cc1Cl	-2.9	0.7	2.1	2.6	-0.5	nt	i	-8.2
CCOc1ccc(NC(=O)CSc2nncn2C)cc1	nt	7.1	2.7	5.7	-5.7	3.6	i	-5.4
O=C1OC(Nc2nc(-c3ccc(F)cc3)cs2)c2ccccc21 (centres undefined)	42.0	-1.9	2.4	-4.4	-7.4	-11.1	i	13.5
C[C@H](NC(=O)c1nc[nH]c1C(=O)N[C@@H](Cc1ccccc1)C(=O)OCc1ccccc1)c1ccccc1	nt	1.3	-0.3	1.2	23.5	-0.6	i	-23.7
O=C(N1CCN(c2cccc(Cl)c2)CC1)C1(c2cccs2)CCOCC1	nt	-9.7	-1.0	-8.9	-14.2	4.2	i	nt
O=C(NCc1ccccc1Cl)c1ccc2nnsc2c1	-12.9	2.3	-0.1	0.9	-12.0	-12.7	i	0.9
CNC(=O)NC(=O)C(C)N1CCN(C/C=C/c2ccccc2)CC1 (centres undefined)	-4.6	-6.0	1.3	-0.3	8.6	-14.6	i	12.4
CC(=O)CCc1ccccc1	-8.8	nt	-2.7	0.7	nt	-14.6	nt	nt
Cc1sc2ncnc(N3CCC(C(=O)N(C)CC(=O)Nc4ccc(Cl)c(C(F)(F)F)c4)CC3)c2c1C	96.0*	nt	-6.9	-15.1	nt	9.2	i	38.3
CS(=O)(=O)Cc1cccc(C(=O)NN(c2ccccc2)c2ccccc2)c1	-9.8	-3.7	0.2	3.9	0.7	-2.8	i	4.5
